Screens deposited in PubChem by several laboratories.
ugtP null kill – kills S. aureus RN4220 lacking UgtP | S. aureus RN4220 ugtP deletion, OD600 growth, 16 h; some inactives read as strong as hits | growth inhibition, % (concentration not given with the values) | hit rate 0.54% among 330,000;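 active means z-score under -3 and OD600 up to 0.15 on both plates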;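 further: plate controls were untreated wells for no effect and antibiotic for full effect; wells of about 80 µL received 100 nL stock; the first replicate is given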
BJeLR lethal – kills HRASV12-expressing BJeLR cells; hit rate 0.17% among 300,000; inhibition, % (no concentration beside the values); BJeLR (HRASV12) viability, CellTiter-Glo ATP luminescence, 48 h; reference of the scale not given here;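 active means replicate mean above 50%; inconclusive means above 50% but judged a plate artefact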;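 further: 50 nL library stock added to about 25 µL; numbers are from one replicate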
Mtb hypoxia rep – inhibitors of hypoxia-regulated fluorescent reporter in Mycobacterium tuberculosis; M. tuberculosis hypoxia-regulated fluorescent reporter, fluorescence; fluorescence inhibition, % (no concentration beside the values); hit rate 0.1% among 300,000; AID 1159583;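 active means 35 to 45% if threefold the growth effect, above 45% if 1.5-fold the growth effect; inactive means the rest, general growth blockers included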;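 further: wells of about 50 µL received 100 nL stock; 0% = vehicle wells and 100% = reference inhibitor wells; whole bacteria with a GFP reporter of the hypoxia response; strong numbers were not always called active; many hits fall short of the cut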
Bead autofluor – flagged as autofluorescent in microsphere protease counterscreen | compound autofluorescence counterscreen, microsphere flow cytometry; stronger effect = higher value | fluorescence intensity (concentration not given with the values) | hit rate 3.1% among 360,000 | AID 624483;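 active means at least 3 SD above the mean of all compounds, about 16000 in these data; inconclusive means too few beads counted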;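 further: 100 nL of 1 mM stock went into each well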
PrP UTR inh – suppresses PrP 5' UTR mRNA reporter expression | inhibition, % (test concentration not listed) | cell-based PrP 5' UTR mRNA reporter, plate reader | AID 488862 | hit rate 0.35% among 340,000;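 active means every replicate at 50% or more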;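 further: 0 = median of the neutral control wells; tested in H4 reporter cells; numbers are from one replicate; inactives centre near -14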
RN4220 kill – S. aureus RN4220 growth inhibition; AID 1259311; hit rate 0.33% among 330,000; OD600, 16 h; inhibition, % (concentration not given with the values);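 active means z-score of -3 or lower and OD600 up to 0.18 on both plates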;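 further: plate controls were untreated cells for no effect and reference antibiotic for full effect; stock transfer was 100 nL into about 80 µL; one replicate is shown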
Mtb hypoxia rep growth – second read-out of Mtb hypoxia rep, no call of its own (marks repeat the call); growth inhibition, %; measured here: M. tuberculosis growth (absorbance);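 0% = vehicle and 100% = reference antibiotic; read after six days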
An asterisk follows results filed as active; ? = inconclusive; / = not tested or not shown; & = joins results of further samples.

Order of results: ugtP null kill, BJeLR lethal, Mtb hypoxia rep, Mtb hypoxia rep growth, Bead autofluor, PrP UTR inh, RN4220 kill
1	Cc1ccnc(NC(=O)CCC(=O)N(CC(=O)NC2CCCCC2)Cc2ccccc2)c1
    7.3, 16.0, 6.9, -1.5, 3660, -24.9, 3.2
2	COc1ccccc1/C=C/C=N/NC(=O)CN1CCN(Cc2ccccc2)CC1
    /, -2.0, /, /, 3785, -21.5, /
3	CCN(C(=O)COC(=O)c1ccccc1O)c1nc2ccccc2s1
    7.0, /, 10.8, 6.6, 2954, -8.3, 2.9
4	Clc1cccc(CNCCCSc2ncccn2)c1
    3.4, -6.2, -3.6, 13.4, 3987, -13.9, 0.9
5	CSCCC(NC(=O)c1ccc([N+](=O)[O-])cc1Cl)C(=O)OC(C)C(=O)NCc1ccco1 (centres undefined)
    1.2, 1.8, -1.7, 7.9, ?, -8.5, -0.2
6	CN(C)S(=O)(=O)NCC1CCCN(Cc2ccc(-c3ccccc3)cc2)C1 (centres undefined)
    2.3, 3.4, 16.0, 9.4, 6598, -22.3, 6.3
7	CCOC(=O)c1cccc(NC(=O)Cn2cc3c(n2)CCC(C)C3)c1 (centres undefined)
    13.3, -0.3, /, /, 4537, -1.2, 2.3
8	CCO[C@H]1OC(C(N)=O)=C[C@@H](C2CC2)[C@@H]1CCCO
    0.2, -4.7, 6.4, 3.3, /, /, -10.7
9	Oc1cccc(CCC2CCCCN2Cc2cn[nH]c2-c2ccc3c(c2)OCO3)c1 (centres undefined)
    6.3, -9.9, 0.5, 2.5, 4667, -18.0, -1.9
10	Cc1cc(Br)cc(Br)c1OCC(=O)NNC(=O)c1ccoc1C
    10.7, 9.1, 5.4, 0.0, 4621, -7.9, 7.4

The last 2 compounds of the part above are carried over, then new ones follow.
Order of results: ugtP null kill, BJeLR lethal, Mtb hypoxia rep, Mtb hypoxia rep growth, Bead autofluor, PrP UTR inh, RN4220 kill
9	Oc1cccc(CCC2CCCCN2Cc2cn[nH]c2-c2ccc3c(c2)OCO3)c1 (centres undefined)
    6.3, -9.9, 0.5, 2.5, 4667, -18.0, -1.9
10	Cc1cc(Br)cc(Br)c1OCC(=O)NNC(=O)c1ccoc1C
    10.7, 9.1, 5.4, 0.0, 4621, -7.9, 7.4
11	O=S(=O)(NC1CCCCC1)c1ccc(F)c2ccccc12
    -6.7, 1.7, 14.9, 8.6, 17449*, -9.0, -3.4
12	Cc1cc2c3nonc3ccc2n1-c1ccccc1
    48.9, -3.5, 8.3, -1.5, 4008, -36.1, -1.3
13	Cc1cc([N+](=O)[O-])nn1Cc1ccc(C(=O)NN=Cc2ccc(F)cc2)cc1
    0.4, /, 1.6, 3.0, /, /, 3.3
14	COc1ccc(-c2cn(CC3CCCCC3)nn2)cc1
    6.4, -9.3, /, /, 2898, -43.3, 0.9
15	CCOc1cc(/C=N/NC(=O)CSc2cccc3cccnc23)ccc1O
    /, -7.3, /, /, 2574, -3.7, /
16	O=C(Nc1ccccc1)C1=CC(c2coc3ccccc3c2=O)CC(OCCCCO)O1 (centres undefined)
    -1.2&-6.8, /, -2.5&12.8, -8.5&6.7, /, /, -1.0&4.1
17	Cc1ccc(-c2nc3ccc(NS(=O)(=O)c4ccccc4)cc3[nH]2)o1
    -1.5, -3.9, -7.4, 8.4, 5870, -18.8, -3.5
18	COc1cccc(OC)c1C(=O)Nc1nc2ccc(S(C)(=O)=O)cc2s1
    3.0, -3.3, /, /, 4446, 11.9, -2.3
19	O=C1CSC(c2cccc(F)c2)N1c1ccccc1F (centres undefined)
    16.0, -21.4, 11.6, 0.6, 4438, -12.1, 6.1
20	Cn1cccc1C(=O)C(=O)Nc1ccccc1
    10.0, 5.6, /, /, 2362, -74.5, 9.0
21	Cc1c(OCC(N)=O)ccc2c(-c3ccccc3)cc(=O)oc12
    -3.6, 7.7, 10.4, 7.1, 3823, -21.7, 4.8
22	CC(C)CCN(CC(=O)NC1CCCC1)C(=O)C(=O)Nc1ccc2c(c1)OCCO2
    -1.4, -2.1, 11.4, 4.8, 3735, 0.5, 3.4
23	COC(=O)c1[nH]c2cc(OC)ccc2c1N
    -0.6, 10.0, 3.2, 7.8, 3004, -7.7, 1.8
24	NC1=NC(=O)C(c2ccccc2)C(=O)N1 (centres undefined)
    1.2, /, -0.5, 7.0, 4417, -26.1, 3.4
25	O=C(NCc1cccc(Cl)c1)C1CCC(=O)N(C2CC2)C1 (centres undefined)
    3.0, -2.3, 6.0, 1.0, 4483, -20.1, 5.1
26	Cc1ccc(N(CC(=O)NC(C)(C)C)C(=O)CCC(=O)Nc2nccs2)cc1C
    2.1, -2.7, -8.5, -5.0, /, -2.1, 2.8
27	CC1CCCCN1S(=O)(=O)c1ccc(C(=O)N2CCOCC2)cc1 (centres undefined)
    3.6, -14.2, 1.9, 11.1, 3646, -11.5, 4.2
28	CCOc1ccccc1NC(=O)CSc1nccn1-c1ccccc1
    1.6, -4.4, /, /, 2833, -16.6, 1.6
29	COCC(C)N1CCC(n2nccc2NC(=O)c2ccc3c(c2)OCO3)CC1 (centres undefined)
    0.0, 3.6, -0.7, 3.9, 6652, -18.1, 1.4
30	CCOC1OC(C(=O)N2CCN(C)CC2)=CC(c2coc3ccccc3c2=O)C1CCCO (centres undefined)
    -2.8&-10.6, /, 5.9&12.6, -1.5&8.5, /, /, 3.1&4.4
31	C[C@H](CO)N1C[C@H](C)[C@@H](CN(C)C(=O)Nc2ccccc2)Oc2c(cccc2N(C)C)C1=O
    5.3, /, 4.3, 4.7, 3018, -7.8, -0.2
32	CC(=O)NN=C(C)CC(=O)Nc1cccc(C(F)(F)F)c1
    1.8, /, 11.9, 5.9, /, /, 2.6
33	COc1c(/C=N/NC(N)=S)c(C)nn1-c1ccccc1
    /, -4.6, /, /, 2533, 8.1, /
34	O=C(c1ccccc1F)N(Cc1ccc2c(c1)OCO2)Cc1cc2cc3c(cc2n2nnnc12)OCO3
    -0.2, 1.7, 3.0, 5.4, 2734, -8.2, 4.7
35	c1ccc(COc2ccccc2CNC23CC4CC(CC(C4)C2)C3)cc1
    -18.6, 7.4, 12.1, -3.3, 2406, -10.7, -9.1
36	Cc1ccc(-c2nc(N/N=C/c3ccccc3[N+](=O)[O-])c3ccccc3n2)cc1
    /, 2.9, /, /, 16971*, -127.9, /
37	CC(C(=O)Nc1ccc([N+](=O)[O-])cc1)N1CCN(C/C=C/c2ccccc2)CC1 (centres undefined)
    -6.1, 11.5, -5.6, 2.9, 8212, 9.2, -3.0
38	CCN(CC)/C(=N/O)NC(=O)NS(=O)(=O)c1ccc(C)cc1
    12.3, 0.0, /, /, 3653, -5.7, 3.7
39	CCc1c(O)nc(SCC(=O)N2CCOCC2)n(-c2ccccc2)c1=O
    3.1, -8.3, 4.2, -1.7, 10390, -15.2, 5.8
40	COc1cccc(NC(=S)NN2CCN(C)CC2)c1
    3.4, 0.6, /, /, 4274, -17.9, 3.0
41	O=C(O)CCCC(=O)Nc1ccc(Br)cc1C(=O)O
    3.4, 2.1, -2.0, -0.6, 8264, -12.6, 1.2
42	COCCN(C(=O)COC(=O)C1(c2ccccc2)CC1)c1c(N)n(CC(C)C)c(=O)[nH]c1=O
    1.4, -13.3, -0.2, 5.4, 6952, -19.3, -1.9
43	O=c1c(C=NCc2cccnc2)c(C(F)(F)F)[nH]n1-c1nc2ccccc2s1
    2.8, 5.3, 13.6, 11.6, 4802, -12.4, 9.3
44	COc1ccc(CCNC(=O)C2CC(=O)N(c3ccc(Br)cc3)C2)cc1OC (centres undefined)
    7.8, 3.3, -0.7, 6.7, 2753, -4.5, 8.1
45	COc1ccc(OC)c(-c2c(=O)n(OCc3ccccc3Br)c3ccccc3[n+]2[O-])c1
    4.4, -3.2, 10.2, 10.2, 1993, -2.2, -0.6
46	CCOc1ccc(NC(=O)Cc2ccc(NC3=NC4CS(=O)(=O)CC4S3)cc2)cc1 (centres undefined)
    -3.5, 0.2, 4.2, 3.8, 6534, 0.5, -6.0
47	O=C1Cc2ccccc2Sc2ccccc21
    -8.7, 2.3, /, /, 2679, -1.7, -0.4
48	COc1nc(OC)nc(N2CCC(NC(=O)C(Cc3cccc(OC)c3OC)NC(C)=O)CC2)n1 (centres undefined)
    3.4, -2.7, -9.9, 2.5, 3661, -12.9, 2.4
49	CC(C)c1nc2oc3c(N4CCN(C)CC4)ncnc3c2c2c1CCC2
    -11.9, /, 11.2, 20.8, 3887, -11.8, -1.8
50	c1ccc(-c2noc(-c3ccccc3-c3ccccc3)n2)cc1
    94.9*, -14.6, /, /, 4640, 0.6, -8.8
51	CCn1c(NC2CCCCC2)nc2ccccc21
    -2.8, -0.1, /, /, 4129, 5.3, -5.8
52	COc1cccc(-n2nnc3c(=O)n(Cc4cccc(F)c4)cnc32)c1
    -12.4, -4.7, -2.8, 4.2, 9014, -11.8, -3.7
53	C(=NNc1ccccc1)c1nc2ccccc2s1
    56.5, /, 4.7, 2.1, /, /, 2.6
54	COc1ccccc1N1CCN(C(=O)c2ccc(-c3ccc(Cl)cc3)o2)CC1
    -12.5, /, 4.7, 4.4, 6383, -33.0, 8.8
55	CN(c1ccccc1)S(=O)(=O)c1ccc(NC(=O)COc2ccccc2)cc1
    5.9, 0.8, 11.1, -16.7, 4508, -8.5, 2.0
56	CN1CCC(N(C)Cc2cccnc2)CC1
    /, -4.1, /, /, 5796, -9.4, /
57	C[C@@H](C(=O)Nc1nc2ccccc2s1)N1C(=O)C2CC=CCC2C1=O (some centres undefined)
    2.1, 3.0, -4.0, 5.7, 3878, -15.4, -2.4
58	COC(=O)c1sc(S(=O)(=O)N2CCC(C(=O)O)CC2)c(C(=O)OC)c1C
    10.6, -1.5, 8.7, 1.5, 4366, -3.4, 6.5
59	O=C(NCCc1ccc(F)cc1)c1cc(=O)c2ccccc2o1
    -0.2, 8.3, -4.9, 2.9, 4097, -20.6, 5.9
60	COc1cc(C(F)(F)F)nc(-c2ccccn2)n1
    6.0, -3.7, -0.2, 2.0, 4218, 0.6, 4.7

Later entries.
Order of results: ugtP null kill, BJeLR lethal, Mtb hypoxia rep, Mtb hypoxia rep growth, Bead autofluor, PrP UTR inh, RN4220 kill
61	Nn1c(Cc2cccc3ccccc23)nnc1SC1CCOC1=O (centres undefined)
    -0.8, 2.7, 8.2, 5.7, 3939, -5.9, -0.1
62	CC(C)Nc1nc(Cl)nc(NC2CCCCC2)n1
    -4.3, 2.3, -15.1, 2.0, 4365, 4.1, 4.3
63	COc1ccc(CNC(=O)CN2C(=O)C(C)N(c3ccc(C)cc3)C2=O)cc1 (centres undefined)
    18.4, -0.5, -5.7, 1.9, 3486, -13.6, 18.2
64	O=C(CN(Cc1ccccc1)S(=O)(=O)c1ccc(F)cc1)NCc1ccncc1
    -2.3, -9.9, 5.3, -2.8, 4557, -1.2, 0.8
65	CC1(C)CC(C(=O)NCCC(c2ccccc2)c2ccco2)CCO1 (centres undefined)
    5.6, 3.0, -0.1, 2.0, 7211, -25.4, -3.2
66	CNc1cnn(-c2ccc(C)cc2)c(=O)c1Sc1ccc(C)cc1
    4.8, -10.6, -3.0, 0.0, 3387, -9.5, 5.5
67	COC(=O)c1[nH]c2ccc(C)cc2c1NC(=O)CN1CCN(C(=O)c2ccccc2)CC1
    4.0, 12.7, /, /, 4431, -10.2, -4.2
68	Cc1ccsc1/C=N/NC(=O)Nc1ccccc1
    /, 1.4, /, /, 4416, -121.8, /
69	Cc1ccc(C)c(NS(=O)(=O)c2cc(C(=O)NCc3ccccn3)ccc2C)c1
    -8.0, -13.3, -1.6, 10.3, 6220, -2.5, 0.6
70	O=C(Nc1ccc(C(=O)N2CCCC2)cc1)Nc1ccc(Cl)cc1Cl
    3.2, 4.4, 0.0, -1.2, 2435, -18.9, 4.7
